AF4-AF9 inh: inhibitors of human MLL-AF4/AF9 interaction | P42568 | AlphaScreen, biotin-AF4 peptide binding to FLAG-AF9 | inhibition, % at 10 µM | 350,000 tested, 0.47% active | AID 651704;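 active = every replicate reaching a set inhibition limit, whatever the replicate mean, cut at about 25% in these data; inconclusive = mean inhibition reaches that limit but some replicates miss it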;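 also: 0% = plate neutral control median and 100% = total signal loss; the record names both 10 and 1 µM as test concentration; the first replicate is given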
Vif TR-FRET: HIV-1 Vif–A3G interaction blockers – biochemical, TR-FRET, GST-Vif 1-94, biotin-A3G peptide, dose response retest, primary screen (AID 1117319) | inhibition, %; hits with a dose series show IC50 in µM | TR-FRET GST-Vif / biotin-A3G peptide binding; higher % means a stronger effect; test concentration not given here; strong numbers were not always called active | 260,000 tested, 0.57% active;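 active = above the screen mean plus three standard deviations and confirmed in dose response; inconclusive = results disagree or hit not tested in dose response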;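 also: Vif residues 1-94 fused to GST binding biotinylated APOBEC3G peptide 110-148; 0% = full assay without inhibitor and 100% = GST in place of GST-Vif; retest series ran down from 100 µM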
UCH37 inh: inhibitors of human deubiquitinating enzyme UCH37 | Q9Y5K5 | purified proteasome/UCH37, Ub-AMC cleavage fluorescence | inhibition, % (concentration not given with the values) | 330,000 tested, 0.33% active;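 active = mean of two replicates above 20%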;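 also: 0% = compound-free wells with enzyme and 100% = wells lacking proteasome; stock transfer was 100 nL into about 20 µL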
Target sequence (Q9Y5K5 whole entry, looked up): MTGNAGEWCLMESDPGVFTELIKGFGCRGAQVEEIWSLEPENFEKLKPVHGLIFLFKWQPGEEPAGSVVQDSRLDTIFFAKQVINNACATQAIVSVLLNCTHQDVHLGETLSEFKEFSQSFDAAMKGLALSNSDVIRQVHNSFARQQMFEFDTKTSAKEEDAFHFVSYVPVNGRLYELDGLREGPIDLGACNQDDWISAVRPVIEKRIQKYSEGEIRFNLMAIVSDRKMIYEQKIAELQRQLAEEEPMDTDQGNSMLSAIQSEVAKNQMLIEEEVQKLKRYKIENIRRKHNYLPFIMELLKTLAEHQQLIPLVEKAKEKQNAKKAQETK
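System: Proteasome-associated human UCH37 deubiquitinase; Input: 0.15 nM proteasome in added enzyme buffer; Also added: Ub-AMC substrate from 1 µM stock; Incubation: 30 min compound-proteasome preincubation then 25 min substrate reaction, room temperature; Detection: fluorescence, ex 355 nm, em 460 nm; Read-out: % inhibition of Ub-AMC cleavage fluorescence; Benchmarks: no-proteasome and no-compound wells.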
RanGTP-Impb inh: disruptors of Ran-importin-beta complex formation – biochemical, FRET, CFP-Ran, YFP-importin-beta, homogeneous, primary screen | cell-free CFP-Ran/YFP-importin-beta FRET ratio | AID 2216 | inhibition, % (concentration not given with the values) | 300,000 tested, 1.1% active;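 active = most replicates above 15%; inconclusive = exactly half above 15%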;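 also: 0% = DMSO wells and 100% = Ran loaded with GDP instead of GTP; wells of about 40 µL received 100 nL stock; the first replicate is given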
FGF22 binding: FGF22 (human) thermal shift binding. recombinant FGF22 thermal shift, SYPRO orange fluorescence; percent of sucrose octasulfate shift, DMSO zero. AID 651658. 340,000 tested, 1.5% active. calls only at 9.99 µM. Q9HCT0;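 active = melting point raised past a set limit in the mean and every replicate; inconclusive = no clear call; three in four hits are not shown here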
Target sequence (Q9HCT0 whole entry, looked up): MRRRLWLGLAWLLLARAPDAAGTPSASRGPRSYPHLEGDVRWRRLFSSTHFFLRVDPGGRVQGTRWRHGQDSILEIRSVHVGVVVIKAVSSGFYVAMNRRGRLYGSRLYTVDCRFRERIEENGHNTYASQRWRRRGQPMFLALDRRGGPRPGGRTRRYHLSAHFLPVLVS
HNF4A DNA FP: change in binding of human HNF4 alpha to DNA; P41235; HNF4a-FITC DNA binding, fluorescence polarization, 1 h; activity change, % at 10 µM; 360,000 tested, 0.3% active; AID 1224865; in the data active = activity change above about 30%, passing the limit was not always enough;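 also: controls were the assay level and a saturating level of protein; the project sought stronger binding though the title names inhibitors; some compounds called inactive have numbers as strong as hits; positive values seem to mean higher polarization but the record does not say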
Target sequence (P41235 whole entry, looked up): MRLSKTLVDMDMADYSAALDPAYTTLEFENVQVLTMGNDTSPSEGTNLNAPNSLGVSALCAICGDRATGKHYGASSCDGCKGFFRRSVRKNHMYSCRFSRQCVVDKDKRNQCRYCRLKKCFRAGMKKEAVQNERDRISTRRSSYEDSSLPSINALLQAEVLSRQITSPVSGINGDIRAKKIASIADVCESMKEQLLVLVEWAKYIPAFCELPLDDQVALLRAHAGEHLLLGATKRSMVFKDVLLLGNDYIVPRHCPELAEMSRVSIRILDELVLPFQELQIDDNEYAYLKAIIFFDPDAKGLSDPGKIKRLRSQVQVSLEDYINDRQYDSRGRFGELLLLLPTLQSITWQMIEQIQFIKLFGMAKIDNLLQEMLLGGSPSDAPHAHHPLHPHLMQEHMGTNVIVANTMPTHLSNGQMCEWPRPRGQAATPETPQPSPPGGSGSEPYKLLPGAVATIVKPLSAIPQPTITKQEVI
E coli growth: E. coli growth inhibition; 330,000 tested, 0.21% active; Escherichia coli growth, OD600, 23 h; active compounds read low; OD600 absorbance (concentration not given with the values);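 active = OD600 absorbance below the run mean of sample wells minus 3.6 SD, in any replicate, cut at about 0.56 in these data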;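 also: stock transfer was 300 nL into about 60 µL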
* = called active by the depositor; i = inactive; ? = inconclusive; / = no result given; & = joins results of further samples. An excerpt. The share of hits here may be higher or lower than overall.

smiles	AF4-AF9 inh	Vif TR-FRET	UCH37 inh	RanGTP-Impb inh	FGF22 binding	HNF4A DNA FP	E coli growth
CC(C)NC(=O)COc1ccc(S(=O)(=O)N(C)Cc2ccccc2)cc1	4.2	32.0%	-0.6	7.8	i	-1.3	0.703
C/C=C/C(=O)Nc1cccc(C2=NOC3(C2)C[C@H](C(N)=O)N(C(=O)/C=C/C)C3)c1 (stereo not given in full)	-0.1	?	0.5	-2.9	i	-0.3	/
CCOc1cc2[nH]c(=O)n(CCC(=O)NCc3ccc(OC)cc3)c(=O)c2cc1OCC	/	-4.3%	-3.2	3.2	/	3.5	0.745
Cn1cnc([N+](=O)[O-])c1S(=O)(=O)Nc1ccccc1	-1.4	0.2%	4.9	/	/	3.9	0.66
Cc1ccc(NC(=O)c2ncn(CC(=O)N3CCN(c4ccccn4)CC3)n2)cc1C	-2.2	/	0.5	/	i	0.2	0.721
CCCCC(=O)Nc1cccc(NC(=S)NC(=O)C(C)C)c1	2.5	/	3.2	-2.2	i	3.8	0.602
C/C(CC1CC2=C(CC1(C)C)C(C)(C)CCC2)=N\NC(N)=S (stereo not given)	/	68.8%	/	13.2	/	3.4	/
CCCc1c(C(=O)N/N=C/C2CC=CCC2)nnn1-c1nonc1N (stereo not given)	-1.6	-1.1%	/	/	i	1.6	/
CSc1nc(NC(C)=O)nc(C)c1Cl	/	0.2%	-3.0	0.5	/	-0.1	0.753
c1ccc(OCc2nn3c(-c4ccncc4)nnc3s2)cc1	/	27.2%	6.2	?	/	-0.5	0.686
CC(C)CC(=O)Nc1nnc(SCC(=O)NCc2ccc3c(c2)OCO3)s1	0.7	-1.6%	-3.5	-2.1	i	1.0	0.743
CCn1cc(/C=N/N=C2\CCC3C4CCc5cc(O)ccc5C4CC[C@]23C)c(C)n1 (stereo not given in full)	/	1.2%	/	1.7	/	1.8	/
CCC(=O)NC(c1ccc(N(C)C)cc1)c1c(O)ccc2ccccc12 (stereo not given)	24.1	/	0.9	3.7	i	-0.7	0.69
COc1cc(C2C(C#N)=C(N)OC3=C2C(=O)CC(C)(C)C3)ccc1OC(=O)N1CCOCC1 (stereo not given)	-30.2	-1.7%&-5.7%	3.9	1.7	i	2.0	0.701
FC(F)(F)Oc1ccc(Nc2nc(N3CCOCC3)nc(N3CCOCC3)n2)cc1	-0.1	5.0%	0.1	-3.1	i	1.2	0.619
CCOC(=O)N1CCN(CC(=O)Nc2ccc([N+](=O)[O-])cc2C(=O)Nc2ccccc2F)CC1	8.2	/	3.0	5.5	i	-1.1	0.678
COc1ccc(S(=O)(=O)N2CCOCC2)cc1NC(=O)COc1ccccc1OC	1.8	/	2.6	-2.3	i	-0.8	0.706
Cc1ccc(CN2CCCOCCS2(=O)=O)cc1	-2.0	/	2.2	3.7	i	0.1	0.706
CC1(C)CC(=O)C2=C(C1)NC(=O)CC2c1ccc(F)cc1 (stereo not given)	/	1.1%	1.2	-2.6	/	-0.3	0.703
c1ccc2c(c1)nc1n2C2(N3CCOCC3)CCCC2C1N1CCOCC1 (stereo not given)	/	/	2.0	/	/	-0.2	0.72

More compounds follow:
smiles	AF4-AF9 inh	Vif TR-FRET	UCH37 inh	RanGTP-Impb inh	FGF22 binding	HNF4A DNA FP	E coli growth
CCC1C(=O)NCCN1C(=O)c1ccc2nc(Cc3cccc(Cl)c3)oc2c1 (stereo not given)	-2.0	-2.8%	-0.3	3.5	i	1.5	0.711
COc1ccc(NC(=O)[C@H](C)NS(=O)(=O)c2ccc(NC(C)=O)cc2)cc1Cl	0.6	/	/	/	i	4.7	/
O=C(CNC(=O)c1cccs1)NCC(=O)OCc1c(F)cccc1Cl	0.0	-6.2%	1.8	-1.5	i	2.8	0.695
S=C1NC[C@H](CC2CCCCC2)N1CCc1cccc2ccccc12	5.2	/	-2.9	-6.8	i	-4.6	/
COc1ccc(NC(=O)c2cc(-c3ccccn3)nc3c(C)cc(C)cc23)c(C)c1	0.5	/	0.5	-0.2	i	6.2	0.756
Cc1ccc(NC(=S)N(Cc2cccs2)Cc2cc3cc(C)ccc3[nH]c2=O)cc1	-0.6	-321.0%	4.5	1.7	i	2.7	0.704
CCOc1cc(C(=O)OCc2cccc(OC)c2OC)ccc1OCC(=O)N1CCOCC1	2.5	5.5%	0.3	4.5	i	0.0	0.672
O=c1cc(-c2ccccc2Cl)oc2c(NS(=O)(=O)c3cccc4nsnc34)ccc(O)c12	2.0	-6.1%	2.2	3.2	i	3.9	0.674
CC(=O)Nc1ccc(/C(C)=N/Nc2nc(Nc3cccc4ccccc34)nc(N3CCOCC3)n2)cc1	/	10.9%	/	-2.8	/	-3.7	/
CCn1c(C)cc(/C=C2/NC(=O)N(c3ccccc3)C2=O)c1C	3.3	?	-6.7	2.5	i	0.9	0.702
CN(C)S(=O)(=O)c1ccc(S(=O)(=O)N2CCCC(C(=O)NC3CC3)C2)cc1 (stereo not given)	0.6	-4.3%	4.6	1.4	i	2.2	0.706
O=C1C2C3C=CC(C3)C2C(=O)N1c1ncc([N+](=O)[O-])s1 (stereo not given)	-0.7	-3.9%	7.8	/	i	-0.3	0.628
O=C(N/N=C1/CCc2ccccc21)C1CC1	2.2	2.9%	/	5.6	i	0.6	/
COC(=O)c1ccc(NC(=O)CCCN2C(=O)NC(C)(C)C2=O)cc1	-2.2	-0.5%	-0.8	/	i	4.9	0.631
COc1ccc(CN2CC(C(=O)NCCN3CCOCC3)CC2=O)cc1 (stereo not given)	/	-2.1%	4.8	-2.4	/	-0.6	0.7
CC(=O)c1ccc(NC2OC(CO)C(O)C(O)C2O)cc1 (stereo not given)	/	-3.1%	5.7	-1.4	/	-3.7	0.705
CC[n+]1c(/C=C(\C)Nc2ccccc2)sc2ccccc21	/	/	16.8	/	/	2.1	0.684
CC(=O)N1CCN(S(=O)(=O)c2cccc(C(=O)Nc3ccc(OC(F)F)cc3)c2)CC1	0.7	3.6%	6.9	3.2	i	0.7	0.664
CC(C)NC(=O)c1cc(-n2cnnc2)ccc1Cl	/	0.5%	-0.1	?	/	-2.9	0.668
N#CCSc1nnc(-c2ccccc2O)n1Cc1ccccc1	/	14.7%	3.6	4.8	/	1.6	0.675

Going on with the list.
smiles	AF4-AF9 inh	Vif TR-FRET	UCH37 inh	RanGTP-Impb inh	FGF22 binding	HNF4A DNA FP	E coli growth
CC(=O)NC1=NN(C(C)=O)C2(CCCC2)S1	-0.6	/	-0.8	1.1	i	-3.6	0.693
C#Cc1ccc([C@@H]2C=C(C(=O)O)O[C@H](OCC)[C@H]2CCCO)cc1	-0.5	/	0.8	0.0	i	-10.7	/
CCCn1c2ccccc2c2cc(C(=O)O)ccc21	9.6	14.1%	/	3.7	i	0.4	/
CCOC(=O)C1(CCc2ccccc2)CCN(Cc2ccn[nH]2)CC1	2.9	-2.1%	-1.7	0.2	i	1.1	0.659
Cc1cc(C)cc(OCC(O)CN2CCN(C(=O)c3ccco3)CC2)c1 (stereo not given)	-1.9	2.2%	3.9	-2.6	i	-0.3	0.671
CCNC(=O)/C(C#N)=C/c1c(N2CC(C)OC(C)C2)nc2ccccn2c1=O (stereo not given)	/	/	2.7	-0.1	/	-3.2	/
CC(C)[C@H](NC(=O)OC(C)(C)C)C(=O)N/N=C/c1ccc2nccnc2c1	-1.1	3.8%	/	-4.8	/	-0.7	/
CCOC(=O)/C=c1\s/c(=C\c2c(OCC)ccc3ccccc23)c(=O)n1CC(=O)NCC1CCCO1 (stereo not given)	/	-2.4%	/	0.3	/	15.2	/
COc1ccc(S(=O)(=O)NCC2CCCN(Cc3ccc(OC)cc3F)C2)cc1 (stereo not given)	4.1	/	1.0	1.5	i	-0.1	0.605
COc1ccccc1N1CCN(C(=O)CSc2nc(-c3ccco3)cc(C(F)(F)F)n2)CC1	-3.8	9.5%&-1.0%	2.8	4.4	i	2.6	0.714
NS(=O)(=O)c1ccc(NC(=O)CCC(=O)c2ccc(Cl)s2)cc1	-1.0	/	3.3	0.0	i	6.3	0.655
CCCC(c1nnnn1C(C)(C)C)N1CCN(C(=O)c2ccco2)CC1 (stereo not given)	0.2	6.4%	3.4	-0.7	i	3.7	0.681
O=C(O)CN1C(=O)c2ccc(Oc3ccc([N+](=O)[O-])cc3)cc2C1=O	-2.6	-5.3%	7.3	1.3	i	-0.4	0.668
COc1ccc(OCCN(C)CC(=O)Nc2ccccc2SC)cc1	-0.6	6.7%	-0.8	-0.4	i	-0.4	0.649
Cc1ccc(C)n1-n1cnc2sc3c(c2c1=O)CCCCC3	/	?	-0.6	4.8	/	0.9	0.683
S=c1[nH]nc(SCc2ccccc2)c2[nH]cnc12	-4.2	-1.2%	4.7	/	i	-1.0	0.639
CCN(CCCNC(=O)c1nn(C)c2c1CS(=O)(=O)c1ccccc1-2)Cc1ccccc1	1.5	-1.4%	1.6	1.1	i	-1.7	0.652
C=CCOc1cccc(C2C(C(=O)c3ccco3)=C(O)C(=O)N2CCN(CC)CC)c1 (stereo not given)	/	-1.5%	5.3	-4.1	/	1.3	0.709
O=C(O)CCCC1(C(=O)O)CCCC1	-0.8	0.5%	3.6	/	i	2.4	0.676
CSc1ccc(-c2nc(CSCC(=O)NCCCN3CCCC3=O)c(C)o2)cc1	1.2	0.5%	-0.3	1.4	i	3.2	0.706

More results follow.
smiles	AF4-AF9 inh	Vif TR-FRET	UCH37 inh	RanGTP-Impb inh	FGF22 binding	HNF4A DNA FP	E coli growth
COc1ccc(CNS(=O)(=O)c2ccc(-c3ccc(=O)[nH]n3)s2)cc1OC	-0.6	/	4.0	-5.6	i	2.4	0.716
CC(=O)c1c(C)n(CC(=O)NCc2ccc3c(c2)OCO3)c2ccccc12	/	-1.1%	0.3	6.7	/	-0.3	0.657
O=C(N/N=C/c1cc(Br)cc([N+](=O)[O-])c1O)c1ccc(NC(=O)c2ccc(F)cc2)cc1	1.1	/	/	-1.9	i	-15.8	/
CCn1c(CNC(=O)c2cc(OC)c(OC)c(OC)c2)cc2ccccc21	-11.0	/	2.3	-2.0	i	0.1	0.666
CC(=O)NC(C)(CC(=O)c1ccccc1)c1ccccc1 (stereo not given)	1.3	/	7.6	-0.4	i	-5.6	0.663

Whole records, quoted from the list.
Listed for COc1ccc(CNS(=O)(=O)c2ccc(-c3ccc(=O)[nH]n3)s2)cc1OC → AF4-AF9 inh = -0.6; Vif TR-FRET = /; UCH37 inh = 4.0; RanGTP-Impb inh = -5.6; FGF22 binding = i; HNF4A DNA FP = 2.4; E coli growth = 0.716
Listed for O=C(N/N=C/c1cc(Br)cc([N+](=O)[O-])c1O)c1ccc(NC(=O)c2ccc(F)cc2)cc1 → AF4-AF9 inh = 1.1; Vif TR-FRET = /; UCH37 inh = /; RanGTP-Impb inh = -1.9; FGF22 binding = i; HNF4A DNA FP = -15.8; E coli growth = /

Assay outcomes from PubChem BioAssay.
